Source: PubChem
PINK1 modulator = PINK1 expression modulation; PINK1 immunofluorescence, high-content cytometry, 24 h; Potency, µM (highest dose often 76.6 µM), inactives show top-dose activation (PINK1 increase), usual class: activators; 410,000 tested, 0.2% active; AID 624263; active = well fitted activation curve with a large enough effect; inconclusive = small, poorly fitted or top-dose-only effect; inactive = flat fitted curve, though single readings scatter; cell line not stated here;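 note: potency is the fitted concentration of half-maximal effect; % of control where 0% means no effect; nearly all actives have a fitted effect of over 65% in size; a mitochondrial uncoupler was the plate control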
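PINK1 protein level read as immunofluorescence by microplate cytometer in a fixed, stained stable cell line after 24 h exposure to five compound concentrations, with CCCP as control.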
Sfp PPTase inh = Sfp phosphopantetheinyl transferase inhibition; AID 1490; Potency, µM, inactives show max response, negative = inhibition, usual class: inhibitors; Q9F4F7; 310,000 tested, 3.5% active; Biochemical Sfp PPTase activity, qHTS; active = well fitted inhibition curve with a large enough effect; inconclusive = small, poorly fitted or top-dose-only effect, or another doubt; inactive = no such curve, though single readings can be large or run the other way;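 note: the enzyme is Sfp with the accession as filed and its product quenches rhodamine fluorescence; potency is the fitted concentration of half-maximal effect; 0% = enzyme reaction without inhibitor and -100% = no enzyme wells; top concentration of the series not given in the record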
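Reaction rates are the 30-min fluorescence difference (ex 525, em 598 nm) in wells containing 15 nM Sfp, 5 uM rhodamine-CoA and 12.5 uM BHQ-2-YbbR at pH 7.6 with 10 mM MgCl2.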
TRPML1 agonist = human mucolipin-1 channel agonism | 410,000 tested, 0.12% active | TRPML1-expressing cells, Ca2+ dye fluorescence, FDSS; host cell line not named in the record; reference of the full effect not given here | activation, % (test concentration not listed) | AID 624414; in the data active = activation above about 50%; inconclusive = about 30% to 50%; inactive = below about 30%; note: 0% is about no effect; the text of the record puts the active cut at 80%
Target sequence (Q9GZU1 whole entry, looked up): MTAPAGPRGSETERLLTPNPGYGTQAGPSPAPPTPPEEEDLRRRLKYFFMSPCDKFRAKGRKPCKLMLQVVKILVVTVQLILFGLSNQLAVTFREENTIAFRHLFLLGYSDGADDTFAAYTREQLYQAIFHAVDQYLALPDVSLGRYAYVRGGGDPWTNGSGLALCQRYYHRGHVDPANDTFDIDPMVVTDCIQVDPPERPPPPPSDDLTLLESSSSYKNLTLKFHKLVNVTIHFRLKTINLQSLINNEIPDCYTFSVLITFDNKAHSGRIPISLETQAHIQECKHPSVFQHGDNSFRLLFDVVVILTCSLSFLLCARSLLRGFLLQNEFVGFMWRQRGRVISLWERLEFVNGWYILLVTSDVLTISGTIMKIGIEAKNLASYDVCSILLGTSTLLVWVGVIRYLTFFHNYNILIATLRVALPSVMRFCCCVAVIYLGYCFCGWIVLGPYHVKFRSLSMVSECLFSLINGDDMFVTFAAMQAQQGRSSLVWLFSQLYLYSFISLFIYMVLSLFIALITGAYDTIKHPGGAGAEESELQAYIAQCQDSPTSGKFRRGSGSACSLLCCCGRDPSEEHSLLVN
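Agonist activity was taken from a 110 s kinetic Ca2+ dye read on the FDSS after pinning compounds onto TRPML1-DL cells. The cells were seeded at 1,500/well with Tet inducer, incubated about 16 h, then dye-loaded at room temperature.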
ClpP mod = qHTS Assay for Activators of ClpP. ATP-dependent Clp protease proteolytic subunit (Bacillus subtilis (strain 168)), P80244. purified B. subtilis ClpP, FRET peptide cleavage, 20 min. Potency, µM (doses to about 57.5 µM), inactives show at the highest dose activity change, negative = active. 340,000 tested, 1.9% active; active = well fitted falling curve with a large enough effect; inconclusive = small, poorly fitted or top-dose-only effect; inactive = no such curve, though single readings can be large or run the other way; note: potency is the fitted concentration of half-maximal effect; the source files actives as falling curves though it sought activators and does not explain the sign; nearly all actives have a fitted effect of over 65% in size; many hits overshoot -100%
Target sequence (P80244 whole entry, looked up): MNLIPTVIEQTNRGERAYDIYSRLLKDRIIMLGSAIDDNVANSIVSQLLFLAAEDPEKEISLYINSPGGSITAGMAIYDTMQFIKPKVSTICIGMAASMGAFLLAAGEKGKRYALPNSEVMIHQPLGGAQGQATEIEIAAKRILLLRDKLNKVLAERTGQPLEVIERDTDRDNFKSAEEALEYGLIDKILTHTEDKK
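ClpP 10 microg/mL final, pH 8 Tris/KCl buffer with BSA, glycerol, Tween-20; compound pinned in; FRET-FV substrate; RT 20 min; Ex320/Em430; ΔFRET vs ADEP 5.8 microM, DMSO, no enzyme.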
TRPML1 inh = inhibitors of human TRPML1 channel | 390,000 tested, 0.02% active | AID 624415 | activity change, negative = inhibition, % (concentration not given with the values) | TRPML1-inducible cells, Ca2+ dye fluorescence, FDSS; hits give low values; inhibition of EC80 agonist-evoked calcium signal | Q9GZU1; in the data active means activity change below about -50%; inconclusive means about -30% to -50%; inactive means above about -30%;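 note: stimulus is agonist 54-4 at its EC80 concentration; % is set by controls: 0 for no effect and ±100 for the full control effect; compound concentration not given in the record; the text of the record puts the active cut at -80%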
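Tet-induced TRPML1-DL cells loaded with Ca8 no-wash calcium dye were read kinetically on FDSS. Compound addition was followed by EC80 agonist 54-4 (4 uM final); inhibition was read over 110 s.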
Menin MLL FP FL = menin-MLL binding inhibition, fluorescein peptide | Fluorescence polarization, fluorescein-MLL peptide displacement from menin | FP activity change, % at 61.4 µM | 290,000 tested, under 10 active | AID 1766; inconclusive = falling polarisation curve, or a change in total fluorescence; inactive = total fluorescence flat and polarisation flat or rising; no compound was filed as active; the % refers to the polarisation; negative = inhibition;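 note: % of control where 0% means no effect; inhibitors lower the polarisation; unlabelled MLL peptide was the positive control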
TRPV1 potentiator = human TRPV1 potentiation; Q8NER1; TRPV1-expressing cells, Fluo-8 calcium influx, capsaicin EC20 potentiation; host cell line not named in the record; control for the full effect not named in the record; potentiation, % at 8.33 µM; 320,000 tested, 0.02% active; active means potentiation above 80%; inconclusive means 30% to 80%; inactive means below 30%; note: 0% is about no effect
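TRPV1-expressing cells were cultured overnight at 35.5C and loaded with Fluo-8 calcium dye for 40 to 90 min at room temperature. After a 10 s baseline, compound was added and calcium influx was read kinetically for 3 min (ex 480/em 520 nm).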
Starred values were filed as active, the others as inactive; & = joins results of further samples; [ ] = remark or other dose. An unsorted share of the library; any-hit rate near 4.4%.

`O=C(Nc1ccccc1)C1=C[C@@H](c2ccc(Br)cc2)C[C@@H](OCCCCO)O1` gave PINK1 modulator 2.7%, Sfp PPTase inh 6%, TRPML1 agonist -0.9, ClpP mod -2.3%, TRPML1 inh 3, Menin MLL FP FL inconclusive and TRPV1 potentiator 6.
Screening CCCCCc1ccc(CC(=O)N2CCOCC2)cc1 returned PINK1 modulator 7.2%, Sfp PPTase inh 4%, TRPML1 agonist 1.2, ClpP mod 0.5%, TRPML1 inh -12, Menin MLL FP FL -0.7 and TRPV1 potentiator 8.
For COc1ccccc1C(=O)OCC(=O)Nc1cccc(S(=O)(=O)N2CCCC2)c1 the results were PINK1 modulator 1.1%, TRPML1 agonist -0.7, ClpP mod -9.4%, TRPML1 inh 5 and TRPV1 potentiator -1.
For CC(=O)Nc1cccc(C(=O)OCc2ccc(C(=O)Oc3ccc(Cl)cc3)cc2)c1 the results were PINK1 modulator inconclusive, Sfp PPTase inh 6%, TRPML1 agonist 3.4, ClpP mod -0.6%, TRPML1 inh 22, Menin MLL FP FL 2.9 and TRPV1 potentiator -2.
CCCCCC(=O)Nc1cccc(C2=NOC3(C2)C[C@@H](C(N)=O)N(C(=O)c2ccc(Cl)cc2)C3)c1 (stereo partly drawn) was read as PINK1 modulator 1.7%, Sfp PPTase inh 1%, TRPML1 agonist 1.5, ClpP mod -0.6%, TRPML1 inh -6, Menin MLL FP FL 0.4 and TRPV1 potentiator 25.
Cc1csc(NC(=O)c2ccc(S(=O)(=O)N3CCN(C)CC3)cc2)n1 was read as PINK1 modulator 0.6%, Sfp PPTase inh 12%, TRPML1 agonist -0.4, TRPML1 inh -14, Menin MLL FP FL -4.3 and TRPV1 potentiator -10.
Screening O=S(=O)(/C=C/c1cccc(Br)c1)N1CCOCC1 returned PINK1 modulator -1.3%, Sfp PPTase inh 23%, TRPML1 agonist -0.7, ClpP mod 1.7%, TRPML1 inh 7, Menin MLL FP FL -7.0 and TRPV1 potentiator -14.
For CC(C)CNC(=O)N1c2ccccc2Sc2ccccc21 the results were PINK1 modulator 0.3%, Sfp PPTase inh 17%, TRPML1 agonist 1.7, TRPML1 inh 9 and Menin MLL FP FL -0.1.
For COc1cc(OC)cc(C(=O)NCC(=O)OCC(=O)c2cc(OC)ccc2OC)c1 the results were PINK1 modulator 0.7%, Sfp PPTase inh 5%, TRPML1 agonist 2.1, ClpP mod 1.6%, TRPML1 inh -1, Menin MLL FP FL 7.5 and TRPV1 potentiator 17.
`CC(=O)Nc1ccc(S(=O)(=O)N(C)C2CCN(C)CC2)cc1` gave PINK1 modulator -0.6%, Sfp PPTase inh 5%, TRPML1 agonist 0.2, ClpP mod -3.9%, TRPML1 inh -16, Menin MLL FP FL -2.1 and TRPV1 potentiator 8.
`Cc1ccccc1OC(C)C(=O)Nc1ccc2c(c1)OCO2` (stereo not drawn) gave PINK1 modulator -0.4%, Sfp PPTase inh 6%, TRPML1 agonist 0.3, ClpP mod 0.0%, TRPML1 inh 22 and TRPV1 potentiator 9.
`COc1cccc(N2CCN(C(=O)c3cc4c(s3)-c3ccccc3OC4)CC2)c1` gave PINK1 modulator 6.2%&0.9%, Sfp PPTase inh 2%, TRPML1 agonist 1.2&2.5, ClpP mod inconclusive, TRPML1 inh -7&1, Menin MLL FP FL 0.1 and TRPV1 potentiator 1.
CC(C)(C)NC(=O)COC(=O)c1ccccc1C(=O)c1ccccc1 was read as PINK1 modulator 1.0%, Sfp PPTase inh 11%, TRPML1 agonist 1.6, ClpP mod 1.3%, TRPML1 inh -14, Menin MLL FP FL 0.9 and TRPV1 potentiator -4.
For COc1ccc(CCc2cc(OC)c(OC)c(OC)c2)cc1 the results were PINK1 modulator 7.3%, TRPML1 agonist 3.7, ClpP mod -5.2% and TRPML1 inh 7.
Cc1ccc(NC(=O)C(Cc2ccccc2)NC(=O)c2ccco2)cc1 (stereo not drawn) was read as PINK1 modulator inconclusive, Sfp PPTase inh 15%, TRPML1 agonist 0.6, ClpP mod 0.3%, TRPML1 inh 34, Menin MLL FP FL 1.4 and TRPV1 potentiator -2.

The last 3 records of the section before are carried over, then new ones follow:
CC(C)(C)NC(=O)COC(=O)c1ccccc1C(=O)c1ccccc1 was read as PINK1 modulator 1.0%, Sfp PPTase inh 11%, TRPML1 agonist 1.6, ClpP mod 1.3%, TRPML1 inh -14, Menin MLL FP FL 0.9 and TRPV1 potentiator -4.
For COc1ccc(CCc2cc(OC)c(OC)c(OC)c2)cc1 the results were PINK1 modulator 7.3%, TRPML1 agonist 3.7, ClpP mod -5.2% and TRPML1 inh 7.
Cc1ccc(NC(=O)C(Cc2ccccc2)NC(=O)c2ccco2)cc1 (stereo not drawn) was read as PINK1 modulator inconclusive, Sfp PPTase inh 15%, TRPML1 agonist 0.6, ClpP mod 0.3%, TRPML1 inh 34, Menin MLL FP FL 1.4 and TRPV1 potentiator -2.
Screening COc1cccc(NS(=O)(=O)c2ccc(NC(C)=O)cc2)c1 returned PINK1 modulator -7.0%[38.3 µM], Sfp PPTase inh 13%, TRPML1 agonist -0.7, ClpP mod -0.7%, TRPML1 inh 16, Menin MLL FP FL 1.4 and TRPV1 potentiator 16.
Screening Cc1ccc(S(=O)(=O)NCC2CCC(C(=O)NCCCOC(C)C)CC2)cc1 (stereo not drawn) returned PINK1 modulator -0.7%, Sfp PPTase inh 0%, TRPML1 agonist 0.2, ClpP mod 0.6%, TRPML1 inh 8, Menin MLL FP FL 9.7 and TRPV1 potentiator -4.
For CCOC(=O)C1CCCN(S(=O)(=O)c2cnc(Cl)c(Br)c2)C1 (stereo not drawn) the results were PINK1 modulator -0.8%, Sfp PPTase inh 20%, TRPML1 agonist 0.6, ClpP mod 1.9%, TRPML1 inh 6, Menin MLL FP FL 3.2 and TRPV1 potentiator -10.
O=c1c2[nH]cnc2n(-c2ccccc2)c(=O)n1Cc1ccccc1 was read as PINK1 modulator -2.5%, Sfp PPTase inh 14%, TRPML1 agonist 0.5, ClpP mod -2.4%, TRPML1 inh 17, Menin MLL FP FL 7.1 and TRPV1 potentiator -10.
`O=C(NC1CC1)c1ccc(F)cc1Cl` gave PINK1 modulator 0.8%, Sfp PPTase inh 18%, TRPML1 agonist -0.3, ClpP mod -0.7%, TRPML1 inh -2, Menin MLL FP FL 3.4 and TRPV1 potentiator 2.
COc1ccc(NC(=O)CSCC(=O)Oc2c(OC)cccc2OC)cc1 was read as PINK1 modulator -0.2%, TRPML1 agonist 1.8, ClpP mod -1.2%, TRPML1 inh 30 and TRPV1 potentiator -18.
`CCc1ccccc1OCCSc1nc(-c2cccs2)nc2cc(=O)[nH]n12` gave PINK1 modulator 2.1%, TRPML1 agonist 2.8, ClpP mod -2.4% and TRPML1 inh 1.
For COc1cccc(CNc2ccc3c(c2)ncn3C(C)C)c1OC the results were PINK1 modulator 2.5%, Sfp PPTase inh -14%, TRPML1 agonist -0.8, ClpP mod 4.1%, TRPML1 inh 2 and Menin MLL FP FL 2.0.
For CCCCCc1ccc(-c2cn(Cc3ccc(C(=O)c4ccccc4)cc3)nn2)cc1 the results were PINK1 modulator 6.6%, Sfp PPTase inh 32%[activator], TRPML1 agonist -0.7&1.1, ClpP mod 1.4%&0.6%, TRPML1 inh -10, Menin MLL FP FL -0.7 and TRPV1 potentiator -14.
For CCO[C@H]1OC(C(=O)Nc2ccccc2)=C[C@@H](c2ccc(Br)cc2)[C@@H]1CCCO the results were PINK1 modulator 17%, Sfp PPTase inh 5%, TRPML1 agonist 1.0, ClpP mod 0.4%, TRPML1 inh -1, Menin MLL FP FL -11 and TRPV1 potentiator -11.
Screening CSc1ccccc1NC(=O)CSc1nncs1 returned PINK1 modulator 2.7%, Sfp PPTase inh 1%, TRPML1 agonist -0.5, ClpP mod -1.7%, TRPML1 inh 22, Menin MLL FP FL 2.0 and TRPV1 potentiator 12.
Screening COc1ccc(COn2c(=O)c(C)[n+]([O-])c3ccccc32)cc1OC returned PINK1 modulator -0.8%, Sfp PPTase inh 5%, TRPML1 agonist -0.2, ClpP mod -1.0%, TRPML1 inh -3, Menin MLL FP FL 0.7 and TRPV1 potentiator 1.
COc1ccc(CCN(C)C(=O)c2cccc(S(=O)(=O)NCc3ccccc3)c2)cc1OC was read as PINK1 modulator -0.1%, Sfp PPTase inh 3%, TRPML1 agonist -0.1, ClpP mod -0.7%, TRPML1 inh 2 and TRPV1 potentiator 4.
Screening CCN(CC)c1ccc(/C=C/c2ccc3ccc(OC)cc3[n+]2CC)cc1 returned PINK1 modulator inconclusive, Sfp PPTase inh -21%, TRPML1 agonist 0.3, ClpP mod -2.8%, TRPML1 inh -10, Menin MLL FP FL inconclusive and TRPV1 potentiator 15.
For O=C(N/N=C/c1c[nH]c2ccccc12)c1cc2ccccc2o1 the results were PINK1 modulator 4.0%, Sfp PPTase inh -6%, TRPML1 agonist 1.1, ClpP mod -4.6%, TRPML1 inh -11, Menin MLL FP FL 6.6 and TRPV1 potentiator 4.
Screening COc1ccccc1-c1noc2c1C(=O)N(Cc1cn(-c3ccc(Cl)cc3)nn1)CC2 returned PINK1 modulator 0.4%, TRPML1 agonist 0.1 and ClpP mod 0.2%.
`O=C1NN=C(c2ccccc2)C1Cc1ccccc1` (stereo not drawn) gave PINK1 modulator 5.9%, TRPML1 agonist 2.4, ClpP mod 1.0% and TRPML1 inh 5.
`CC(NC(=S)Nc1ccc(F)cc1)c1ccccc1` (stereo not drawn) gave PINK1 modulator 2.3%, Sfp PPTase inh 17%, TRPML1 agonist 0.4, ClpP mod 0.3%, TRPML1 inh 10, Menin MLL FP FL -3.2 and TRPV1 potentiator 1.
CC1=C(/C=C/C(C)=C/C=C/C(C)=C/C=C/C=C(C)/C=C/C=C(C)/C=C/C2=C(C)C(=O)CCC2(C)C)C(C)(C)CCC1=O was read as PINK1 modulator 2.1%, Sfp PPTase inh 6% and Menin MLL FP FL 0.6.
For CC(C)Nc1nc(NC(N)=S)nc(NC(C)(C)C)n1 the results were PINK1 modulator -1.4%, Sfp PPTase inh -4%, TRPML1 agonist 0.5, TRPML1 inh -3, Menin MLL FP FL 2.3 and TRPV1 potentiator -14.
`O=C1CN(Cc2ccccc2)C(=NCc2ccco2)S1` gave PINK1 modulator 3.3%, Sfp PPTase inh -11%, TRPML1 agonist -0.2, ClpP mod -0.4%, TRPML1 inh -9, Menin MLL FP FL 1.6 and TRPV1 potentiator 10.
